Bioassay records: PubChem BioAssay, several laboratories
Calb FLC: C. albicans growth modulation with fluconazole. C. albicans CaCi-2 (fluconazole-resistant clinical isolate) + fluconazole, Alamar Blue growth, 48 h. growth inhibition, % (no concentration beside the values). 0.57% of 300,000 active;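 active = most replicates above 75%; inconclusive = exactly half above 75%; inactive = most below 75%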;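 note: all wells also contain fluconazole at 8 µg/ml as a sub-toxic cotreatment; 0% = median of DMSO wells and 100% = median of geldanamycin control wells; wells of about 8 µL received 7.5 nL stock; the first replicate is given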
UCH37 DUB inh: inhibitors of human deubiquitinating enzyme UCH37 | purified proteasome/UCH37, Ub-AMC cleavage fluorescence | inhibition, % (no concentration beside the values) | 0.33% of 330,000 active | AID 588478;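 active = mean of two replicates above 20%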;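 note: 0% = compound-free wells with enzyme and 100% = wells lacking proteasome; stock transfer was 100 nL into about 20 µL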
Target sequence (Q9Y5K5 whole entry, looked up): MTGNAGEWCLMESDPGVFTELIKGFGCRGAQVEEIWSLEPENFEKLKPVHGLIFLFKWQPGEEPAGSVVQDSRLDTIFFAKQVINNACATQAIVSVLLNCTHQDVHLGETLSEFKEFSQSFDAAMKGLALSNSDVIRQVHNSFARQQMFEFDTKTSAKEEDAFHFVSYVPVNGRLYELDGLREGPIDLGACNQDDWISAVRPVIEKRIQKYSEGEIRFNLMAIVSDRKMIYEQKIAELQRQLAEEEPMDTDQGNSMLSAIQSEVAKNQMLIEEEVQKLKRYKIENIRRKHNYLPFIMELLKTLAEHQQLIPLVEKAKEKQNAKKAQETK
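system = Proteasome-associated human UCH37 deubiquitinase | amount = 0.15 nM proteasome as dispensed | medium = pH 7.4 Tris-HCl (50 mM) with ovalbumin, ATP-MgCl2, DTT | incubation = 30 min preincubation with enzyme, 25 min cleavage at room temperature | detection = AMC fluorescence 355/460 nm | read-out basis = percent inhibition | controls = no-proteasome and no-compound wells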
Beta cell apopt: beta cell apoptosis inhibition. INS-1E cytokine-induced death, ATP luminescence, 48 h; percent of positive-control rescue, neutral wells zero. protection from apoptosis, % (no concentration beside the values). 0.8% of 300,000 active. AID 435005;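 active = all replicates at 75% or more, or half of them and the mean; inconclusive = half reach 75% but not the mean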;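 note: 0% = cytokine-treated negative control wells and 100% = positive control rescue; higher means more ATP so stronger rescue from cytokine killing; wells of about 40 µL received 100 nL stock; the first replicate is given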
A1 inh: inhibitors of the anti-apoptotic protein A1, read as caspase activation; MEF A1-2A-BIM cells, Caspase-Glo 3/7 luminescence, 3 h; percent of clofoctol response, vehicle zero; caspase activation, % (no concentration beside the values); 0.066% of 330,000 active; AID 2462;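 active = over half of replicate activation scores above 10%, or exactly half above 10 with the replicate mean above 10; inconclusive = replicate mean below 10 yet half the replicates above 10; inactive = over half of replicates below 10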;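 note: wells of about 30 µL received 50 nL stock; many hits fall short of the cut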
LANA-H2A inh: blocks KSHV LANA binding to histone H2A/H2B. Q9QR71. cell-free LANA-H2A/H2B peptide, fluorescence polarization. 0.6% of 320,000 active. inhibition, % (concentration not given with the values); in the data active = inhibition mostly above about 10%, no sharp cut-off; inactive = mostly below about 6.7%;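 note: stock transfer was 7.5 nL into about 10 µL; 0% = median of vehicle wells and 100% = median of positive control wells; one replicate is shown; the record names a cut of 25% in any replicate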
B2AR ag: agonists of human beta-2 adrenergic receptor inducing internalization. 0.43% of 340,000 active. AID 504454. Am2.2-beta2AR cells, FAP receptor internalization, flow cytometry; reference of the scale not given here. response, % (concentration not given with the values). P07550;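 active = response above a set limit, near 3 SD of response in nonfluorescent compounds, cut at about 42% in these data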;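 note: stock transfer was 100 nL into about 11 µL; a reference agonist was the positive control; negative values mostly stem from fluorescent compounds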
Target sequence (P07550 whole entry, looked up): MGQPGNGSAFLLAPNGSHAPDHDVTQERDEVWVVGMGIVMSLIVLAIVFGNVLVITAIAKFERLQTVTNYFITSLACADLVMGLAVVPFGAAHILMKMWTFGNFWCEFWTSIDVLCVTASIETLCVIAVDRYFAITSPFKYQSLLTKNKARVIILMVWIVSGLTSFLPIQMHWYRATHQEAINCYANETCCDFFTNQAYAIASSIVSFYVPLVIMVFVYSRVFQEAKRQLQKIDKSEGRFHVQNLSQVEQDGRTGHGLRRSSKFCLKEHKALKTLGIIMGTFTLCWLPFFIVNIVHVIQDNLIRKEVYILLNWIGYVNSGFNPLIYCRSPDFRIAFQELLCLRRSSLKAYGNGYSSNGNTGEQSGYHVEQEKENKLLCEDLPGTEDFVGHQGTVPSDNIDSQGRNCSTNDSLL
RanGTP-Imp inh: inhibitors of RanGTP-importin-beta interaction, primary screen, biochemical, FRET, CFP-Ran, YFP-importin-beta, homogeneous; AID 2216; cell-free CFP-Ran/YFP-importin-beta FRET ratio; inhibition, % (concentration not given with the values); 1.1% of 300,000 active;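 active = most replicates above 15%; inconclusive = exactly half above 15%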;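 note: 0% = DMSO wells and 100% = Ran loaded with GDP instead of GTP; wells of about 40 µL received 100 nL stock; the first replicate is given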
T cruzi repl: T. cruzi replication inhibition. T. cruzi beta-gal in NIH3T3, luminescence, 90 h. inhibition, % (test concentration not listed). 1.4% of 300,000 active;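 active = mean inhibition across valid replicates above about 55%, limit read from the data; inconclusive = mean below that limit but half or more replicates reach it; inactive = mean below it, under half of replicates reach it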;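 note: signal also drops with host cell toxicity which is not excluded here; 0% = plate median of DMSO wells and 100% = zero luminescence signal; higher percent means less beta-gal luminescence so fewer parasites; stock transfer was 50 nL into about 50 µL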
* hit, by the source's call; u = inconclusive; x = no result given. Outcome played no part in choosing rows; overall some 4.3% were active at least once.

SMILES	Calb FLC	UCH37 DUB inh	Beta cell apopt	A1 inh	LANA-H2A inh	B2AR ag	RanGTP-Imp inh	T cruzi repl
CC(=O)NCCC1CCN(c2nc3nonc3nc2N(C)Cc2ccccc2)CC1	-18	8.8	5	0.3	12	-3	-4.0	-9
O=C(COc1coc(CN2CCN(c3ccc(F)cc3)CC2)cc1=O)NC1CCCC1	2	-1.8	-1	0.0	3.7	-6	-3.3	-1
O=C(CCC1CCCCC1)Nc1cccc(C(=O)Nc2ccc(C(=O)O)cc2)c1	-11	x	-4	0.4	-3.1	-10	2.5	-8
Cc1ccccc1OCC(=O)NC(C)c1ccccc1 (stereo unspecified)	-3	-0.1	2	0.1	-5.9	-3	1.6	-7
COc1ccc(NC(=O)CSc2n[nH]c(-c3ccncc3)n2)cc1Cl	x	1.3	4	0.6	4.8	5	x	x
COc1ccc(S(=O)(=O)Nc2c3ccccc3nc(=O)n2-c2ccccc2)cc1	-4	-7.1	10	0.8	-2.5	-1	0.3	-2
COc1cccc(OCC(O)CN2CCN(C)CC2)c1 (stereo unspecified)	3	0.0	x	0.6	4.1	-16	-1.5	39
CSc1cccc(NC(=O)C(C)Sc2ccc(C)cc2)c1 (stereo unspecified)	-5	2.4	-2	0.1	-3.9	11	-1.9	-3
CCOc1nc(-c2ccc(Cl)cc2)nc2ccccc12	6	2.1	4	0.3	1.8	22	1.1	1
COc1ccc(C2CC(=O)Oc3ccc(C(C)(C)C)cc32)cc1 (stereo unspecified)	-6	0.6	0	-1.4	1.2	7	1.8	-10
C/C(=N\Nc1ccc2nncn2n1)c1ccc(Cl)s1	2	x	3	0.0	0.9	-1	6.0	14
O=C(NCCNC(=O)c1cnccn1)c1cccc(Cl)c1	-14	2.3	0	-0.5	2.4	-1	1.9	8
COc1cccc(N/C(SCc2cccc([N+](=O)[O-])c2)=C(/C#N)C(N)=O)c1	-6	6.4	3	-0.6	1.8	0	0.1	67*
O=C(Cn1nnc2ccccc2c1=O)N[C@@H](Cc1ccccc1)C(=O)O	-7	1.3	-7	0.2	-5.1	7	3.3	-16
Nc1nc(SCC(=O)N2CCCc3ccccc32)n[nH]1	x	2.1	-4	1.1	3.8	5	x	x
O=C(NC1CCCC1)C(=O)N(Cc1cccnc1)C(C(=O)NC1CCCC1)c1ccco1 (stereo unspecified)	26	0.1	-4	-0.2	2.4	-3	0.9	-1
CN1CCC(OC(=O)c2cccc(Br)c2)CC1	-7	3.4	-2	0.1	1.3	-5	-2.3	u
O=C(Nc1ccccc1O)c1cccc(S(=O)(=O)N2CCOCC2)c1	1	-1.3	-1	-0.7	-0.4	4	1.1	-6
CCCC(=O)Nc1c2c(nc3ccccc13)N(c1ccccc1)CC2	-3	-210	4	0.9	2.3	-13	1.5	-10
CN(C)c1ccc(P(=O)(OCc2ccccc2)C(O)c2ccncc2)cc1 (stereo unspecified)	u	-0.1	-1	1.3	6.7	2	-0.4	-1
Cc1[nH]c(=O)[nH]c(=O)c1CSc1nnc([C@@H](NC(=O)OC(C)(C)C)C(C)C)o1	-4	2.1	-1	0.1	1.7	4	-0.2	-5
CC(NC(=O)/C(C#N)=C/c1cn(-c2ccccc2)nc1-c1ccc(F)cc1)c1ccccc1 (stereo unspecified)	4	-26	1	-0.1	0.3	-11	4.9	31
CCc1c(C#N)c(=O)[nH]c(=O)n1-c1ccccc1	7	3.1	0	1.4	-2.3	5	3.8	-1
Cc1ccc(C(=O)Nc2ncc(C)s2)s1	-15	4.7	-5	-5.6	-0.9	3	1.3	-27
O=C(CSC1=NCCS1)NC1CCCCC1	-8	3.3	-4	-0.1	-0.2	4	u	-14
SMILES	Calb FLC	UCH37 DUB inh	Beta cell apopt	A1 inh	LANA-H2A inh	B2AR ag	RanGTP-Imp inh	T cruzi repl
CCOC(=O)CCc1c(C)c2ccc(OC(C)C(=O)OCC)c(C)c2oc1=O (stereo unspecified)	19	-55	-9	x	3.3	1	-2.3	2
O=C(Nc1ccon1)Nc1ccc(Cl)cc1Cl	34	4.1	5	0.1	0.4	-24	-3.7	7
C/C(=N/OCC(=O)NCCCCCCNC(=O)CO/N=C(/C)c1cccs1)c1cccs1	1	x	x	-0.2	2.7	-10	4.3	4
CCOc1cc(/C=C2\SC(N)=NC2=O)ccc1O	7	6.5	0	-1.2	-0.7	11	-4.9	-21
COc1ccccc1C(=O)Nc1c2c(nn1-c1cccc(C)c1C)CS(=O)C2 (stereo unspecified)	63	1.1	-7	0.9	4.5	-5	-1.7	0
CC1CCCC(C)N1C(=O)COC(=O)Cn1cnc2c1c(=O)n(C)c(=O)n2C (stereo unspecified)	2	-0.1	-7	0.7	0.3	-5	-2.4	-14
C=CCSc1nnc(-c2cnn(-c3ccccc3)c2-n2cccc2)n1C	1	-3.3	x	0.4	-2.2	-19	1.9	5
O=C(Nc1ncc2c(n1)-c1ccccc1CC2)c1cccc(Cl)c1	25	-14	-8	-0.6	-0.6	6	1.1	-30
CC(C)(C)CN1CCNC[C@H]1Cc1ccc(O)cc1	5	2.1	-4	0.2	-0.4	2	4.7	-21
Cc1ccc(C)c(C(C)NC(=O)C2CCCO2)c1 (stereo unspecified)	-2	1.5	-7	0.1	-3.1	-10	-5.3	-1
Nc1c(Cl)cc(Cl)cc1C(=O)OCC(=O)N1CCCC1=O	2	-270	0	-0.4	-0.1	1	-0.9	5
CCOC(=O)Cc1cnc(NC(=O)CSc2nc(C)c(CC)c(=O)[nH]2)s1	-5	1.7	-5	0.5	-0.9	-3	3.3	-5
CCCNC(=O)c1cccc(C(F)(F)F)c1	9	1.5	-5	1.2	-1.0	6	3.2	-43
O=c1nc2c(-c3ccccc3F)n[nH]n2c2ccccc12	60	-36	4	-7.1	-1.4	-3	1.2	4
CC1CC(OCC(O)CN2CCN(Cc3ccccc3)CC2)CC(C)(C)C1 (stereo unspecified)	-13	-0.2	-3	0.1	-3.0	6	-3.0	27
CCc1nccn1C(=O)c1cnn2c(C(F)F)cc(-c3ccc(C)cc3)nc12	16	-190	-33	1.5	x	17	-0.7	17
CCN1CCCC1CNC(=O)c1ccc(Sc2ccc(F)cc2)c([N+](=O)[O-])c1 (stereo unspecified)	2	6.3	-20	0.4	-3.5	-9	-2.2	62*
COc1cc(C(=O)NCCCc2nc3ccccc3n2Cc2cc(C)ccc2C)cc(OC)c1OC	-2	-1.7	9	-0.8	3.8	0	0.4	4
CCN(CC)CC(O)Cn1c(-c2cccc(Cl)c2)nc2cc(C)c(C)cc21 (stereo unspecified)	-8	-1.3	3	0.3	-3.4	-2	-2.7	3
CC(C)OCCCN1CC(=O)N2[C@@H](Cc3c([nH]c4ccccc34)C2(C)C)C1=O	-3	0.9	-3	-1.3	-2.6	-9	1.0	1
O=C(CSc1ncccc1-c1nc2ccccc2[nH]1)NCc1ccco1	0	-25	-1	-2.1	-0.1	35	3.1	-15
O=C(CCC(=O)N1CCN(S(=O)(=O)c2ccc(Cl)cc2)CC1)NCc1ccccc1	-20	1.3	-5	0.7	-1.8	4	3.3	-11
Cc1ncc(C(=O)O)c(C(=O)O)c1N	9	-100	-5	-0.6	-1.0	-4	4.3	-19
COc1ccccc1-c1noc(Cn2cc(S(=O)(=O)N3CCCC3)ccc2=O)n1	x	1.4	-2	0.7	0.8	-2	x	x
Cc1cc(C)c(NC(=O)CNC(=O)Cc2sc(C)nc2-c2ccc(F)cc2)c(C)c1	0	4.4	x	-0.6	-2.8	10	-4.6	4
SMILES	Calb FLC	UCH37 DUB inh	Beta cell apopt	A1 inh	LANA-H2A inh	B2AR ag	RanGTP-Imp inh	T cruzi repl
COc1ccccc1OCC#CCSc1ncccn1	-1	1.1	1	-1.9	12	1	-1.9	11
CN(C)/C=C(\C(=O)c1ccc(Cl)cc1)c1nnnn1-c1ccc(Cl)cc1	-3	7.8	0	0.3	0.0	6	0.8	-19
O=C(NCCCn1ccnc1)/C(=C\c1cccs1)NC(=O)c1ccco1	-4	3.0	-4	1.0	0.5	0	0.0	-1
COc1ccc(-n2nnnc2S(=O)(=O)CC(=O)N2CCCCC2)cc1	x	4.5	4	0.8	1.6	15	x	x
Cc1cccc(-c2nc3c(c(SCC(=O)N4CCOCC4)n2)Cc2c(CO)cnc(C)c2O3)c1	-3	4.2	7	-0.3	18*	16	0.9	25
Cn1c(SCc2ccccc2[N+](=O)[O-])nnc1-c1cccnc1	-5	-1.5	-3	0.3	-2.8	0	u	-4
CCN(CC)S(=O)(=O)c1cccc(NC(=O)c2ccc(-n3nc(C)cc3C)cc2)c1	-7	1.1	5	0.6	1.4	12	1.4	-8
O=C(CCl)Nc1ccccc1C(=O)Nc1ccc2c(c1)OCO2	25	-0.8	-23	-3.1	-4.7	2	2.5	47
CC(/C=N/n1cnnc1)=C\c1ccco1	2	x	0	-1.3	1.8	1	5.5	-34
O=C(COC(=O)/C=C/c1ccccc1Cl)NC(=O)Cc1ccccc1	-9	2.2	3	0.8	3.9	3	-2.2	-12
O=C(CSc1ncnc2c1oc1ccccc12)NC1CCCCC1	-8	5.4	0	0.1	2.7	-24	6.4	4
O=C(COC(=O)C1CCC(=O)N1)Nc1ccccc1Br (stereo unspecified)	6	5.1	-6	-0.4	1.3	12	3.9	-4
CCOC(=O)CN1C2=NCCN2c2ccccc21	-3	6.5	-7	1.0	-3.4	0	7.6	-6
COc1ccc(CCNC(=O)c2cc3c(=O)n4cccc(C)c4nc3n(CCCN3CCOCC3)c2=N)cc1	-4	x	27	-0.3	3.3	37	39*	35
COc1cc2c3nnc(-c4ccc(F)cc4)c-3cn(Cc3cccc(F)c3)c2cc1OC	x	-5.0	-2	-0.7	-24	-73	x	1
CC(=O)Nc1cc(N=Cc2ccc(O)cc2O)c(Cl)cc1Cl	-4	7.7	-5	0.2	5.2	18	-4.4	-12
COc1ccc(C=O)cc1CN1C(=O)c2ccccc2C1=O	1	3.3	2	0.8	-3.9	-4	2.2	-8
O=C(NCc1ccccc1)C1CCCN1S(=O)(=O)c1cccc2cccnc12 (stereo unspecified)	18	1.3	-1	0.0	-3.6	-3	-2.3	0
CCCCN(C(=O)c1ccc(NC2CC2)c([N+](=O)[O-])c1)c1c(N)n(CC(C)C)c(=O)[nH]c1=O	x	4.1	-7	0.8	0.6	-14	x	x
O=C(c1ccc(S(=O)(=O)N2CCCC2)cc1)N1CCCC(C(F)(F)F)C1 (stereo unspecified)	-1	-1.2	-3	-0.2	1.9	-2	3.9	5
O=C(NC(=S)N1CCN(c2ccc([N+](=O)[O-])cc2)CC1)c1ccc(F)cc1	1	2.8	-4	-0.1	-6.1	9	-2.1	-16
CSCc1cc(N(C)C)nc(SCc2ccc(Cl)c(Cl)c2)n1	-41	0.8	1	-0.2	-11	-10	6.8	-10
CCN(CCCNC(=O)c1cc2c(-c3cccc(OC)c3)nn(C)c2s1)Cc1ccccc1	2	-73	-5	0.2	-3.5	26	6.3	42
Cc1cc(C(=O)CSc2nc(N)cc(=O)[nH]2)c(C)n1CC1CCCO1 (stereo unspecified)	x	4.5	0	0.7	2.1	-7	x	x
